Assay outcomes as filed in PubChem.
MLL AF4-AF9 inh: blocks AF4 peptide binding to human AF9; AlphaScreen, biotin-AF4 peptide binding to FLAG-AF9; inhibition, % at 10 µM; 350,000 compounds, 0.47% hits; AID 651704;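 active = every replicate reaching a set inhibition limit, whatever the replicate mean, cut at about 25% in these data; inconclusive = mean inhibition reaches that limit but some replicates miss it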;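 note: 0% = plate neutral control median and 100% = total signal loss; the record names both 10 and 1 µM as test concentration; the first replicate is given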
Target sequence (P42568 whole entry, looked up): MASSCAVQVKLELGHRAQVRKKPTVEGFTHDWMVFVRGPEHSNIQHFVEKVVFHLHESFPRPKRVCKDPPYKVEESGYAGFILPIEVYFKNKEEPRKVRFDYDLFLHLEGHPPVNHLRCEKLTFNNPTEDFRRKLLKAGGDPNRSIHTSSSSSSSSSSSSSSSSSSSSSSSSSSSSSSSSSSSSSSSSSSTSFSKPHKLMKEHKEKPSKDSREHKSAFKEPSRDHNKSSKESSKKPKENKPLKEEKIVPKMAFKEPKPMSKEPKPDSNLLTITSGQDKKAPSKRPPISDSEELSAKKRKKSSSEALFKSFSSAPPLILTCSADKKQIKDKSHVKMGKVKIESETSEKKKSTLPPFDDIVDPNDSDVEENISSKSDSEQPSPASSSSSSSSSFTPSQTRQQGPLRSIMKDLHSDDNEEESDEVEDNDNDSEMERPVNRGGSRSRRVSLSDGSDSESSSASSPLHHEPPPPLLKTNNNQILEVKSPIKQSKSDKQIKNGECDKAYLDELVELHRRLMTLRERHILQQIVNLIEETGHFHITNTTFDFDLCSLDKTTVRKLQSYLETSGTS
LANA-H2B inh: blocks KSHV LANA binding to histone H2A/H2B | Q9QR71 | cell-free LANA-H2A/H2B peptide, fluorescence polarization | inhibition, % (no concentration beside the values) | 320,000 compounds, 0.6% hits; in the data active = inhibition mostly above about 10%, no sharp cut-off; inactive = mostly below about 6.7%;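 note: stock transfer was 7.5 nL into about 10 µL; 0% = median of vehicle wells and 100% = median of positive control wells; one replicate is shown; the record names a cut of 25% in any replicate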
Vif A3G: inhibitors of Vif binding to APOBEC3G peptide, primary screen, biochemical, TR-FRET, GST-Vif 1-94, biotin-A3G peptide, dose response retest (AID 1117319). TR-FRET GST-Vif / biotin-A3G peptide binding; higher % means a stronger effect; test concentration not given here; strong numbers were not always called active. inhibition, %; hits with a dose series show IC50 in µM. 260,000 compounds, 0.57% hits;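 active = above the screen mean plus three standard deviations and confirmed in dose response; inconclusive = results disagree or hit not tested in dose response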;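 note: Vif residues 1-94 fused to GST binding biotinylated APOBEC3G peptide 110-148; 0% = full assay without inhibitor and 100% = GST in place of GST-Vif; retest series ran down from 100 µM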
Bfl-1 A1 inh: inhibitors of the anti-apoptotic protein A1, read as caspase activation; MEF A1-2A-BIM cells, Caspase-Glo 3/7 luminescence, 3 h; percent of clofoctol response, vehicle zero; caspase activation, % (concentration not given with the values); 330,000 compounds, 0.066% hits;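 active = over half of replicate activation scores above 10%, or exactly half above 10 with the replicate mean above 10; inconclusive = replicate mean below 10 yet half the replicates above 10; inactive = over half of replicates below 10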;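 note: wells of about 30 µL received 50 nL stock; many hits fall short of the cut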
RanGTP-Imp inh: inhibitors of RanGTP-importin-beta interaction, primary screen, biochemical, FRET, CFP-Ran, YFP-importin-beta, homogeneous; AID 2216; inhibition, % (no concentration beside the values); 300,000 compounds, 1.1% hits; cell-free CFP-Ran/YFP-importin-beta FRET ratio;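 active = most replicates above 15%; inconclusive = exactly half above 15%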;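 note: 0% = DMSO wells and 100% = Ran loaded with GDP instead of GTP; wells of about 40 µL received 100 nL stock; the first replicate is given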
T cruzi repl: blocks replication of Trypanosoma cruzi | T. cruzi beta-gal in NIH3T3, luminescence, 90 h | inhibition, % (no concentration beside the values) | 300,000 compounds, 1.4% hits;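 active = mean inhibition across valid replicates above about 55%, limit read from the data; inconclusive = mean below that limit but half or more replicates reach it; inactive = mean below it, under half of replicates reach it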;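 note: signal also drops with host cell toxicity which is not excluded here; 0% = plate median of DMSO wells and 100% = zero luminescence signal; higher percent means less beta-gal luminescence so fewer parasites; stock transfer was 50 nL into about 50 µL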
Calb FLC: affects C. albicans growth with fluconazole; AID 1979; 300,000 compounds, 0.57% hits; C. albicans CaCi-2 (fluconazole-resistant clinical isolate) + fluconazole, Alamar Blue growth, 48 h; growth inhibition, % (no concentration beside the values);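 active = most replicates above 75%; inconclusive = exactly half above 75%; inactive = most below 75%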;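 note: all wells also contain fluconazole at 8 µg/ml as a sub-toxic cotreatment; 0% = median of DMSO wells and 100% = median of geldanamycin control wells; wells of about 8 µL received 7.5 nL stock; the first replicate is given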
Beta cell apopt: blocks beta cell apoptosis; INS-1E cytokine-induced death, ATP luminescence, 48 h; percent of positive-control rescue, neutral wells zero; protection from apoptosis, % (no concentration beside the values); 300,000 compounds, 0.8% hits;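 active = all replicates at 75% or more, or half of them and the mean; inconclusive = half reach 75% but not the mean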;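 note: 0% = cytokine-treated negative control wells and 100% = positive control rescue; higher means more ATP so stronger rescue from cytokine killing; wells of about 40 µL received 100 nL stock; the first replicate is given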
An asterisk follows results filed as active; ? = inconclusive; . = not tested or not shown; & = joins results of further samples. Compounds as they come. Share with any hit: about 4.3%.

SMILES,MLL AF4-AF9 inh,LANA-H2B inh,Vif A3G,Bfl-1 A1 inh,RanGTP-Imp inh,T cruzi repl,Calb FLC,Beta cell apopt
CC(C)c1nnc(NC(=O)C2CC(=O)N(CCc3ccc(F)cc3)C2)s1 (stereo not drawn),1.1,10,.,0.6,4.9,9,3,-1
COc1ccc(C2=NOC(COC(=O)c3ccc4ccccc4n3)C2)cc1 (stereo not drawn),.,1.2,-6%,0.1,-3.4,-18,-1,-1
COc1ccc(C(N)=O)cc1NC(=O)CC(O)(C(F)(F)F)C(F)(F)F,.,0.7,-1%,-0.1,-1.5,-8,6,4
C#CCSc1nnc(-c2ccccc2)c(=O)[nH]1,.,-0.1,-4%,-0.6,-3.6,-1,-3,6
Cc1ccc(S(=O)(=O)N2N=C3CCCCC3C2(O)C(F)(F)F)cc1 (stereo not drawn),-0.5,-3.6,.,0.1,5.3,-4,-27,-2
CN(C)c1oc(-c2ccco2)nc1C#N,.,-3.8,1%,-0.6,-1.3,-16,11,-2
COc1ccc(CCn2c(N3CCN(C)CC3)nc3c2c(=O)[nH]c(=O)n3C)cc1,.,-3.1,21%,1.2,?,-14,-11,-3
O=C(NC1CCCc2ccccc21)c1cccc(Br)c1 (stereo not drawn),11,-2.8,-11%,0.4,2.1,0,2,9
C[C@H](CO)N1C[C@H](C)[C@H](CN(C)C(=O)Nc2ccc(C(F)(F)F)cc2)Oc2c(NC(=O)c3ccncc3)cccc2C1=O,-1.5&-3.8,0.2,.,0.0,.,.,.,-8
Cn1c(=O)c2c(nc(N/N=C/c3cccs3)n2Cc2ccc(Br)cc2)n(C)c1=O,.,1.5,13%,-0.2,4.2,-7,4,11
C[C@H](NC(=O)c1nc[nH]c1C(=O)N1CCNCC1)C(=O)OC(C)(C)C,2.2,-1.5,.,-0.2,-0.3,-15,-12,.
CC(C)NC(=O)CSc1nc2[nH]ncc2c(=O)[nH]1,-1.5,2.3,0%,-0.3,-0.1,-20,-12,-6
COc1cccc(CC(=O)OCC(=O)N(C)CC(=O)Nc2ccc(F)cc2)c1,-1.5,-1.3,3%,0.1,5.9,-11,16,1
O=C(c1ccc(NS(=O)(=O)c2ccccc2)cc1)N1CCOCC1,-0.6,-4.3,.,-1.5,1.6,-3,7,-1
CCOC(=O)C1=C(c2ccccc2)NC(=O)NC1c1cc(OC)c(OC)cc1OC (stereo not drawn),1.9,0.4,28%,1.4,0.6,-1,111*,-2
O=C(CSCCO)Nc1ccccc1,.,1.4,-3%,-0.5,?,1,-14,-5
CCCCCNC(=O)c1ccc2c(=O)n(CC3CCCO3)c(=S)[nH]c2c1 (stereo not drawn),0.4,2.0,-3%,0.0,2.7,2,-1,-1
Cc1cc(C(=O)Nc2ccc(S(=O)(=O)Nc3onc(C)c3C)cc2)c(C)o1,.,-0.6,-5%,-1.6,?,-6,8,-4
CCN(CC(=O)Nc1ccc(NC(C)=O)cc1)C(=O)C1CCCC1,-1.4,103*,74%,0.3,.,.,.,-1
CC(OC(=O)c1cc(=O)[nH]c2ccccc12)C(=O)Nc1ccc(Cl)cn1 (stereo not drawn),1.7,-0.6,-1%,-0.1,.,.,.,-5
CCOc1ccc(CCN2C(=O)c3cccnc3C2=O)cc1OCC,-0.3,3.9,?,0.7,2.7,-12,1,1
FC(F)(F)c1cccc(NC(=S)N2CCN(c3ccccc3)CC2)c1,-0.8,2.7,.,0.0,?,-30,-10,-11
CC1=NN(C(=O)c2ccccc2Cl)C(O)(c2ccccc2)C1 (stereo not drawn),-2.7,-2.5,.,0.2,-2.7,-15,1,-3
CCCCc1cc(=O)oc2cc(C)cc(OCC(=O)N3CCC(C(=O)O)CC3)c12,-0.1,-1.0,.,0.0,8.0,-1,-4,-3
CN(C)C(=S)SCC(=O)NCc1ccc(F)cc1,1.1,1.5,.,-0.3,3.4,-15,-2,-4
O=Cc1ccc(-c2ccc(Cl)cc2Cl)[nH]1,-0.5,-1.2,.,-0.2,1.8,2,3,-1
CCNc1nc2ccccc2[nH]1,.,1.0,-1%,0.6,0.1,1,-3,-2
CCC(C(=O)n1cccc1C#N)c1ccccc1C (stereo not drawn),-0.1,9.7,.,0.1,.,.,.,-10
COc1cc(C(=O)Oc2ccc3c(c2)OCC3=O)cc(OC)c1OC,.,1.0,-1%,?,4.7,-11,3,1
O=C(Nc1cccc(F)c1)Nc1ccnn1C1CCN(C(=O)c2ccccn2)CC1,-0.7,-0.7,4%,-0.1,?,-7,-28,-1

The listing continues:
SMILES,MLL AF4-AF9 inh,LANA-H2B inh,Vif A3G,Bfl-1 A1 inh,RanGTP-Imp inh,T cruzi repl,Calb FLC,Beta cell apopt
O=CNC(=O)c1ccccc1C(=O)O,.,-2.5,0%,1.0,-0.2,-6,2,-3
O=S(=O)(CC(CN1CCOCC1)N1CCOCC1)c1ccccc1 (stereo not drawn),1.1,2.6,0%,0.3,0.2,-13,-20,2
Cc1ccc(S(=O)(=O)N2CCC(C(=O)Nc3ccccc3N3CCCCC3)CC2)cc1C,-1.8,5.2,-4%,0.3,5.7,16,-7,20
O=C(C1CCCN(S(=O)(=O)c2ccc(F)cc2)C1)N1CCCCCC1 (stereo not drawn),1.8,3.6,2%,-0.3,-5.0,-11,0,-1
CC(C)CCNC(=O)CCS(=O)(=O)c1cccc2nonc12,.,3.3,-2%,-0.3,-5.6,-2,3,2
O=S(=O)(NCCSc1ccccc1)c1ccc(F)cc1,.,0.6,-1%,0.2,-0.4,7,-3,-7
CCOc1ccccc1Nc1nnc(SCC(=O)Nc2nc(-c3ccc(OC)cc3)cs2)s1,-1.3,-1.3,-38%,0.2,-0.2,12,6,0
CCC(=O)Nc1ccc(C(=O)N2CCN(C(=O)c3ccco3)CC2)cc1,0.4,2.8,?,-0.4,-1.9,-17,-17,-2
CN(C)CCn1c(=S)[nH]c2ccccc2c1=O,.,-3.1,?,-0.1,2.7,-6,7,.
Cc1cccc(C2NC(c3cccc(C)c3)C([N+](=O)[O-])C(C)(C)C2[N+](=O)[O-])c1 (stereo not drawn),.,-4.5,11%,0.8,-3.5,35,-10,6
O=C(CCc1ccccc1)N1N=C(c2ccncc2)CC1(O)C(F)(F)F (stereo not drawn),0.1,-2.1,3%,0.0,-0.7,9,-23,7
O=C(COc1ccc(Cl)cc1)NCc1nnc(SCC(=O)NC2CCCC2)o1,.,0.2,?,-1.0,3.4,-8,0,1
C#CCOCCOCCOCCNc1nc(N2CCN(C(=O)[C@H](CCC(=O)O)n3cc(C(N)CC(C)C)nn3)CC2)nc(N2CCN(C(=O)[C@H](Cc3cc4ccccc4[nH]3)n3cc(C(N)CC(C)C)nn3)CC2)n1 (stereo partly drawn),.,-3.6,9%,0.9,11,-6,9,1
O=C1NC[C@H](CC2CCCCC2)N(CCc2cccc(F)c2)C1=O,-74,-2.2,.,-0.7,5.4,-5,4,2
COc1cccc(CN(C)CC(=O)Nc2ccccc2C(=O)NC2CC2)c1,-0.3,0.2,-7%,-0.4,.,.,.,-7
COc1ccc(Cl)cc1NC(=O)c1nnn(CC(=O)Nc2ccc(C)c(C)c2)c1N,1.7,3.5,-5%,0.5,1.1,-9,-7,.
COC(=O)C1=C(C)N(c2ccc(Cl)cc2)/C(=C/c2ccc(O)cc2)C1=O,-0.9,2.7,-6%,0.5,7.4,-7,14,30
O=C(O)c1ccc(-n2nnnc2Oc2cccc3cccnc23)cc1,.,-1.4,33%,0.1,.,-7,-4,-7
CCOP(=O)(OCC)C(Nc1cccc([N+](=O)[O-])c1)c1ccc(N(C)C)cc1 (stereo not drawn),19,-0.3,9%,0.0,-1.8,13,-6,-2
Cc1nc(N)sc1C(=O)N/N=C/c1cccnc1,-1.0,2.4,4%,-0.4,-0.7,0,30,-8
COc1ccccc1CNC(=O)c1c(-c2ccccc2Cl)noc1C,-22,4.2,-13%,0.9,1.5,10,7,-5
CCCc1c(OCCCCc2nn[nH]n2)ccc(C(C)=O)c1O,-6.5,-5.2,?,-0.4,7.3,-7,.,5
O=C(O)CCSc1nnc(COc2ccc(Cl)cc2)n1-c1ccccc1,3.3,1.2,18%,?,0.6,1,10,0
O=C(c1ccc(Cl)cc1)N1CCC(c2nc(-c3cccs3)no2)CC1,?,-6.6,4%,0.2,-3.4,3,18,3
Nc1ccc(C(=O)N/N=C\c2cc(N=Nc3cccc4ccccc34)ccc2O)cc1,.,-1.3,3%,0.3,-3.7,59*,32,70
Cc1ccc(S(=O)(=O)N2CCN(C(=O)c3cc4c(s3)CCCC4)CC2)cc1,-6.7,.,-11%,0.3,.,.,.,2
CCN(c1ccc(OC)cc1)S(=O)(=O)N1CCCC(C(=O)NCc2ccccc2Br)C1 (stereo not drawn),0.2,0.4,.,0.6,-1.6,4,-5,-1
O=C(CSc1nnc(-c2ccccc2Cl)o1)N1CCCCC1,-6.8,-2.6,7%,0.4,5.6,7,2,6
COc1ccc(CCN(Cc2nc3ccccc3c(=O)[nH]2)C(=O)c2ccco2)cc1OC,.,-1.7,-6%,0.1,0.5,-10,-9,-10
Cc1cccc(OCCCC(=O)Nc2ccccc2C(F)(F)F)c1,.,1.9,18%,-1.3,6.5,-5,1,-4

Later entries:
SMILES,MLL AF4-AF9 inh,LANA-H2B inh,Vif A3G,Bfl-1 A1 inh,RanGTP-Imp inh,T cruzi repl,Calb FLC,Beta cell apopt
CC1CCCCN1Cc1ccc(N(C)C)cc1 (stereo not drawn),3.3,-4.2,67µM*,1.8,-5.4,22,-10,-2
Cc1ccccc1NC(=O)Cc1nc(COC(=O)c2cccc(C)c2O)cs1,-0.7,3.8,.,0.3,2.3,-3,-11,-1
CN(CC(=O)Nc1ccccc1Cl)C(=O)c1cccc(-n2cccc2)c1,-16,-5.4,0%,0.1,.,-1,-5,3
COc1ccc(OCC(O)CN2C(=O)c3ccccc3C2=O)cc1 (stereo not drawn),-0.4,-0.1,9%,0.2,-0.2,-1,2,-5
